High-throughput results from PubChem BioAssay.
rRNA inh HTS = selective bacterial rRNA inhibition in E. coli; E. coli WT GFP vs humanized-ribosome RFP mutants, fluorescence, 24 h; active compounds read low; DMSO median 0, no signal -100; AID 720706; actives 1.6% (n = 350,000); GFP signal change (wild-type ribosome), % (concentration not given with the values);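 active means significant combined selectivity score with lowered wild-type GFP, culture density cut under 30%, mutant RFP and density less affected; inactive means any of these conditions unmet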; further: one replicate is shown; some compounds called inactive have numbers as strong as hits
rRNA inh HTS OD600 = recorded beside rRNA inh HTS, whose call it bears; OD600 change, %; measured here: OD600 growth;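 optical density of the mix in the first replicate; 0 = DMSO median and -100 = no signal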
rRNA inh HTS RFP = recorded beside rRNA inh HTS, whose call it bears; RFP signal change, %; measured here: RFP humanized mutant strains;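 first replicate; 0 = DMSO median and -100 = no signal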
Numbers without * were called inactive. Only part of the results is shown. The share of hits here may be higher or lower than overall.

SMILES | rRNA inh HTS | rRNA inh HTS OD600 | rRNA inh HTS RFP
CO[C@@H]1CN(C)C(=O)c2cc(NC(=O)NC(C)C)ccc2OC[C@H](C)N(Cc2cncnc2)C[C@@H]1C | 2 | 0 | -0.8
CO[C@@H]1CN(C)C(=O)c2ccc(NC(=O)C3CC3)cc2OC[C@H](C)N(Cc2cncnc2)C[C@H]1C | 1 | -1 | -2.3
CNC[C@H]1Oc2ncc(/C=C/c3ccccc3)cc2C(=O)N([C@@H](C)CO)C[C@H]1C | -3 | 7 | 6.6
CCNC(=O)C[C@@H]1CC[C@@H]2[C@@H](COc3ccc(NC(=O)NC(C)C)cc3C(=O)N2C)O1 | -2 | -3 | -4.4
CO[C@H]1CN(C)C(=O)c2cc(NC(=O)C3CC3)ccc2OC[C@H](C)N(CCc2ccccc2)C[C@@H]1C | -3 | -14 | 2.4
C[C@@H]1CN([C@H](C)CO)C(=O)c2cccc(NC(=O)c3cnccn3)c2O[C@H]1CN(C)S(=O)(=O)c1ccc(Cl)cc1 | -2 | -4 | 1.9
C[C@H]1CN(C)C(=O)c2cc(NS(C)(=O)=O)ccc2O[C@H]1CN(C)S(C)(=O)=O | 2 | 4 | 1.7
C[C@H]1CN([C@@H](C)CO)C(=O)c2cccc(NC(=O)Nc3ccc(F)cc3)c2O[C@H]1CN(C)S(=O)(=O)c1cn(C)cn1 | 0 | -8 | -0.8
CCC(=O)Nc1ccc2c(c1)C(=O)N(C)C[C@H](OC)[C@H](C)CN(CC1CCOCC1)[C@@H](C)CO2 | 2 | 4 | -0.4
CCC(=O)N1C[C@@H](C)[C@@H](OC)CN(C)C(=O)c2cc(NC(=O)NC3CCCC3)ccc2OC[C@@H]1C | 2 | 4 | 0.1
COCC#Cc1ccc([C@H]2[C@H]3CN(C(=O)Nc4cc(F)ccc4F)CC(=O)N3[C@H]2CO)cc1 | 2 | 13 | -1.0
CO[C@@H]1CN(C)C(=O)c2cc(NC(=O)C3CC3)ccc2OC[C@H](C)N(CCc2ccccc2)C[C@@H]1C | 2 | -3 | 2.1
CNC[C@@H]1OCCCC[C@@H](C)Oc2ccc(NS(=O)(=O)c3ccc(F)cc3)cc2C(=O)N([C@@H](C)CO)C[C@@H]1C | 4 | 1 | 1.9
O=C(NC[C@H]1[C@@H](c2ccccc2)[C@H](CO)N1C(=O)Cc1cccnc1)C1CCC1 | -2 | 2 | 0.1
COc1ccccc1S(=O)(=O)N1CC[C@@H]2[C@@H](CO)Nc3ccc(Br)cc3[C@@H]21 | -30 | -56 | 1.4
O=C(c1ccc2c(c1)OCO2)N1CC(=O)N2[C@H](C1)[C@H](c1ccc(C#CC3CCCC3)cc1)[C@@H]2CO | -12 | -56 | 18
C[C@H]1CN([C@@H](C)CO)C(=O)c2cc(NS(=O)(=O)c3ccc(Cl)cc3)ccc2O[C@@H]1CN(C)C(=O)Nc1ccc(C(F)(F)F)cc1 | -4 | -8 | -1.3
CC(C)CC#Cc1ccc2c(c1)O[C@H](CN(C)C(=O)C1CC1)[C@@H](C)CN([C@H](C)CO)S2(=O)=O | -2 | -13 | 6.1
COc1ccccc1-c1ccc2c(c1)O[C@H](CN(C)C(=O)c1cccnc1)[C@@H](C)CN([C@H](C)CO)S2(=O)=O | -2 | -8 | -3.4
CCCN(C)C[C@H]1OCCCC[C@@H](C)Oc2ccc(NC(=O)c3ccccc3)cc2C(=O)N([C@@H](C)CO)C[C@H]1C | 0 | 1 | -2.7

Given with values ahead of the structure: 4 of the compounds above.
rRNA inh HTS	rRNA inh HTS OD600	rRNA inh HTS RFP	mol
-30	-56	1.4	COc1ccccc1S(=O)(=O)N1CC[C@@H]2[C@@H](CO)Nc3ccc(Br)cc3[C@@H]21
2	0	-0.8	CO[C@@H]1CN(C)C(=O)c2cc(NC(=O)NC(C)C)ccc2OC[C@H](C)N(Cc2cncnc2)C[C@@H]1C
-3	7	6.6	CNC[C@H]1Oc2ncc(/C=C/c3ccccc3)cc2C(=O)N([C@@H](C)CO)C[C@H]1C
2	13	-1.0	COCC#Cc1ccc([C@H]2[C@H]3CN(C(=O)Nc4cc(F)ccc4F)CC(=O)N3[C@H]2CO)cc1

Limited to rRNA inh HTS OD600 and rRNA inh HTS, for 4 of the compounds above:
Structure	rRNA inh HTS OD600	rRNA inh HTS
COCC#Cc1ccc([C@H]2[C@H]3CN(C(=O)Nc4cc(F)ccc4F)CC(=O)N3[C@H]2CO)cc1	13	2
CO[C@@H]1CN(C)C(=O)c2cc(NC(=O)C3CC3)ccc2OC[C@H](C)N(CCc2ccccc2)C[C@@H]1C	-3	2
CNC[C@@H]1OCCCC[C@@H](C)Oc2ccc(NS(=O)(=O)c3ccc(F)cc3)cc2C(=O)N([C@@H](C)CO)C[C@@H]1C	1	4
O=C(NC[C@H]1[C@@H](c2ccccc2)[C@H](CO)N1C(=O)Cc1cccnc1)C1CCC1	2	-2

Back to the main list; the 3 compounds before the break are reprinted first.
SMILES | rRNA inh HTS | rRNA inh HTS OD600 | rRNA inh HTS RFP
CC(C)CC#Cc1ccc2c(c1)O[C@H](CN(C)C(=O)C1CC1)[C@@H](C)CN([C@H](C)CO)S2(=O)=O | -2 | -13 | 6.1
COc1ccccc1-c1ccc2c(c1)O[C@H](CN(C)C(=O)c1cccnc1)[C@@H](C)CN([C@H](C)CO)S2(=O)=O | -2 | -8 | -3.4
CCCN(C)C[C@H]1OCCCC[C@@H](C)Oc2ccc(NC(=O)c3ccccc3)cc2C(=O)N([C@@H](C)CO)C[C@H]1C | 0 | 1 | -2.7
O=C(c1cnccn1)N1CC(=O)N2[C@H](CO)[C@@H](c3ccc(C4=CCCCC4)cc3)[C@H]2C1 | 1 | -1 | -3.2
CCCN(C)C[C@@H]1Oc2cc(-c3ccccc3C)ccc2S(=O)(=O)N([C@@H](C)CO)C[C@@H]1C | 5 | 6 | -4.2
C[C@@H]1CN([C@H](C)CO)C(=O)c2cc(N(C)C)ccc2O[C@@H](C)CCCCO[C@H]1CN(C)Cc1ccc2c(c1)OCO2 | 0 | 7 | 0.1
CCC(=O)Nc1ccc2c(c1)C(=O)N(C)C[C@H](OC)[C@@H](C)CN(Cc1cncnc1)[C@H](C)CO2 | 0 | 1 | -1.7
C[C@@H]1CN([C@@H](C)CO)C(=O)c2c(c3ccccc3n2C)-c2ccccc2CO[C@H]1CN(C)CC1CCCCC1 | 3 | -10 | 3.5
COCC(=O)N1C[C@H](C)[C@@H](OC)CN(C)C(=O)c2cc(NS(C)(=O)=O)ccc2OC[C@H]1C | 4 | 6 | -0.7
COc1ccc2c3c(n(C)c2c1)[C@@H](CO)NCC31CN(S(=O)(=O)c2ccc(C)cc2)C1 | -8 | 3 | 5.8
CNC[C@@H]1Oc2ccc(NC(C)=O)cc2C(=O)N(C)C[C@H]1C | 7 | 12 | 0.5
CC(C)NC(=O)Nc1cccc2c1O[C@H](CN(C)C(=O)OC(C)(C)C)[C@@H](C)CN(C)C2=O | -4 | -13 | -2.7
C[C@@H]1CN([C@@H](C)CO)S(=O)(=O)c2ccc(C#CC3CC3)cc2O[C@@H]1CN(C)C(=O)Nc1cc(F)ccc1F | 1 | 0 | -0.6
C[C@@H]1CN([C@H](C)CO)C(=O)CCCn2cc(nn2)CO[C@@H]1CN(C)Cc1ccccc1 | 1 | 4 | -0.3
CN(C)c1ccc2c(c1)[C@@H]1C[C@H](CC(=O)NCc3ccccc3F)O[C@H](CO)[C@@H]1O2 | 1 | 6 | -0.9
CC(=O)N(C)C[C@@H]1Oc2ccc(N)cc2CC(=O)N(C)C[C@H]1C | 2 | 1 | -1.0
CCC(=O)N1[C@H](CO)[C@H](c2ccc(-c3ccccc3)cc2)[C@@H]1CNC(=O)COC | -1 | 0 | -3.9
COc1ccc(-c2cnc3c(c2)C(=O)N([C@@H](C)CO)C[C@@H](C)[C@H](CN(C)S(=O)(=O)c2ccc(OC)cc2)O3)cc1 | 0 | -12 | 9.6
CO[C@H]1CN(C)C(=O)c2ccc(NC(=O)C3CC3)cc2OC[C@@H](C)N(Cc2cc(F)ccc2F)C[C@H]1C | -5 | -14 | 3.2
COc1ccc2c3c(n(C)c2c1)[C@H](CO)N(C(=O)c1ccncc1)CC31CCN(C)CC1 | 1 | 3 | -0.2
C[C@H](CO)N1C[C@H](C)[C@H](CN(C)Cc2ccccc2)Oc2cc(-c3ccccc3)ccc2S1(=O)=O | -1 | -42 | 24
CNC[C@@H]1Oc2ccc(NC(C)=O)cc2C(=O)N(C)C[C@@H]1C | 3 | -4 | -2.3
C[C@H]1CN([C@@H](C)CO)C(=O)c2cc(C3=CCCC3)cnc2O[C@H]1CN(C)C(=O)C1CC1 | 2 | -2 | -3.6
C[C@H](CO)N1C[C@H](C)[C@H](CN(C)C(=O)c2ccc3ccn(C)c3c2)OCc2cn(nn2)CCCC1=O | -1 | 1 | -0.3
C[C@@H]1CC=CCCNC(=O)[C@H](C)N(C)C(=O)c2ccccc2O1 (mixture of isomers) | 3 | 8 | -2.7
CCCN(C)C[C@@H]1Oc2cc(-c3cccc(F)c3)ccc2S(=O)(=O)N([C@@H](C)CO)C[C@@H]1C | -4 | 0 | 3.4
C[C@@H]1CN([C@@H](C)CO)C(=O)c2cc(N(C)C)ccc2O[C@@H](C)CCCCO[C@H]1CN(C)Cc1ccc(C(=O)Nc2ccccc2N)cc1 | -1 | -2 | -2.6
C[C@@H]1CN([C@@H](C)CO)C(=O)c2cc(C#Cc3ccncc3)cnc2O[C@@H]1CN(C)Cc1ccncc1 | 3 | 4 | -0.9
O=C(NC[C@@H]1[C@@H](c2ccccc2)[C@H](CO)N1Cc1ccccn1)C1CCC1 | 0 | -4 | -0.3
CC(=O)N1[C@@H](CO)[C@@H](c2ccc(C3=CCCC3)cc2)[C@@H]1CNC(=O)CN(C)C | 2 | -3 | 2.2
COc1ccc2c3c(n(C)c2c1)[C@@H](CO)N(C(=O)C1CCOCC1)CC31CN(C(=O)Nc2cccc(F)c2)C1 | 1 | 7 | -0.6
O=C(CN1CCOCC1)N1CCCCN2[C@@H](CO)[C@@H](c3ccc(C#Cc4ccccc4F)cc3)[C@@H]2C1 | 4 | 4 | 6.7
C[C@@H]1CN([C@H](C)CO)C(=O)Cc2cc(NS(=O)(=O)c3ccc(F)cc3)ccc2O[C@H]1CN(C)Cc1ccc(Cl)c(Cl)c1 | -1 | 2 | 3.1
COc1ccc(-c2cnc3c(c2)C(=O)N([C@H](C)CO)C[C@H](C)[C@H](CN(C)C(=O)C2CC2)O3)cc1 | 5 | 4 | -0.7
CC(C)NC(=O)N(C)C[C@@H]1Oc2ccc(NC(=O)Cn3cnnn3)cc2C(=O)N([C@@H](C)CO)C[C@@H]1C | 4 | 6 | -0.3
COc1ccc(S(=O)(=O)Nc2ccc3c(c2)C(=O)N([C@H](C)CO)C[C@@H](C)[C@H](CN(C)C(=O)NC(C)C)O3)cc1 | 3 | 10 | -0.5
CCCNC(=O)N1CC[C@@H]2[C@@H](CO)N(C)c3ccc(C#Cc4ccccc4F)cc3[C@@H]21 | 2 | 2 | 0.8
O=C(O)C[C@@H]1C[C@@H]2c3cc(NC(=O)C4CCOCC4)ccc3O[C@@H]2[C@@H](CO)O1 | 2 | 4 | -1.0
COCC#Cc1cnc2c(c1)C(=O)N([C@H](C)CO)C[C@H](C)[C@@H](CN(C)Cc1ccc(-c3ccccc3)cc1)O2 | -2 | 10 | 12
Cc1ccc(S(=O)(=O)N(C)C[C@H]2Oc3ccc(NC(=O)Nc4cccc5ccccc45)cc3C(=O)N([C@@H](C)CO)C[C@@H]2C)cc1 | 1 | -5 | 0.3
C[C@H]1C/C=C\C[C@H](c2ccc3c(c2)OCO3)NC(=O)[C@H](c2ccccc2)CC(=O)N1 | 2 | -11 | -4.3
COc1ccc(S(=O)(=O)N2CC[C@@H]3[C@H](CO)Nc4ccc(Br)cc4[C@@H]32)cc1 | -8 | -4 | 2.1
C[C@H](CO)N1C[C@H](C)[C@H](CN(C)Cc2ccc(Oc3ccccc3)cc2)Oc2c(NS(=O)(=O)c3ccc(F)cc3)cccc2C1=O | 0 | 7 | -0.1
O=C1NCCOCn2nncc2CC[C@H]1Cc1cccc(Cl)c1 | 0 | 2 | -0.7
COc1cccc(S(=O)(=O)N2CCCCN3[C@H](C2)[C@H](c2ccc(C#CC4CC4)cc2)[C@@H]3CO)c1 | 0 | 10 | 1.2
C[C@@H]1CN([C@H](C)CO)C(=O)CCCn2cc(nn2)CO[C@@H]1CN(C)C(=O)Nc1cccc(C(F)(F)F)c1 | 0 | -1 | -0.1
CNC[C@H]1OCCCC[C@H](C)Oc2ccc(NC(=O)Nc3ccc4c(c3)OCO4)cc2C(=O)N([C@H](C)CO)C[C@@H]1C | 5 | 4 | -1.0
C/C=C/c1ccc([C@H]2[C@@H](CO)N(C(C)=O)[C@H]2CN(C)S(C)(=O)=O)cc1 | 1 | 3 | -1.6
C[C@@H]1CN([C@H](C)CO)S(=O)(=O)c2ccc(-c3ccccc3)cc2O[C@H]1CN(C)C(=O)C1CC1 | -1 | -22 | -0.3
C[C@H]1CN([C@@H](C)CO)C(=O)c2cc(C#CC3CC3)cnc2O[C@H]1CN(C)C(=O)c1ccncc1 | 6 | 16 | -2.2
CN1C(=O)c2cc(NC(=O)Nc3ccccc3)ccc2OC[C@@H]2O[C@H](CC(=O)O)CC[C@H]21 | 2 | 5 | -1.3
C[C@@H]1CN([C@@H](C)CO)C(=O)CCCn2cc(nn2)CO[C@@H]1CN(C)C(=O)c1cc(-c2ccccc2)on1 | -7 | 0 | 1.3
CC(C)NC(=O)N1[C@@H]2CN(C(=O)C3CCCCC3)c3ccccc3[C@@H]2[C@@H]1CO | 1 | 1 | 3.4
Cc1ccc(S(=O)(=O)Nc2cccc3c2O[C@H](CN(C)Cc2ccc(Oc4ccccc4)cc2)[C@H](C)CN([C@H](C)CO)C3=O)cc1 | -1 | -2 | 1.0
CO[C@@H]1CN(C)C(=O)c2cc(NC(=O)Nc3cc(F)ccc3F)ccc2OC[C@H](C)N(C(=O)c2ccccn2)C[C@H]1C | -4 | 0 | -2.0
CC(C)[C@@H]1COCc2cn(nn2)CC[C@@H](Cc2ccc(Cl)cc2)C(=O)N1 | -1 | -9 | 1.0
